Compound activity from PubChem BioAssay.
NPYLR7 ag = activates Aedes aegypti NPYLR7 receptor | HEK293T NPYLR7/Galpha15, GCaMP6s calcium fluorescence | activation, % at 10 µM | actives 0.15% (n = 270,000) | AID 1259423; in the data active = activation above about 40%;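 also: 0% = vehicle and 100% = reference agonist at the receptor; some compounds past the cut are filed as inactive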
NPYLR7 ag max-min = recorded beside NPYLR7 ag, whose call it bears; activation, %; measured here: Max-Min RFU normalised activation; some inactives read as strong as hits;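 span of the calcium signal over five minutes; 0% = vehicle and 100% = native peptide agonist; compound fluorescence can raise it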
An asterisk follows results filed as active; & = joins results of further samples.

Every second line gives: NPYLR7 ag, NPYLR7 ag max-min
(1) O=S(=O)(c1ccc2c(c1)CCCC2)N(Cc1ccsc1)Cc1ccccn1
    17.7, 16.1
(2) COc1cc(/C=C/C(=O)Oc2coc(CSc3ncccn3)cc2=O)cc(OC)c1OC
    -14.3, -8.7
(3) Clc1ccc(OCCn2c3ccccc3c3nc4ccccc4nc32)cc1
    0.5, -1.0
(4) CCCCN(CC)C(=O)c1nc(N(CC)CC)ncc1Cl
    2.3, 0.5
(5) C=c1c(C#N)c2[nH]c(N)c(C#N)c(C)c-2/c1=C\c1c[nH]c2ccccc12
    2.0, 1.0
(6) CC(C)(Oc1ccc(Cl)cc1)C(=O)N1CSCC1C(=O)O (stereo not drawn)
    -18.6&-23.5, -29.7&-25.9
(7) CCc1cccc2c(-c3csc(CC(=O)OC)n3)c[nH]c12
    16.8, 9.4
(8) CN(C)c1ccccc1C(=O)N1CCCC(CO)(Cc2cccc(Cl)c2)C1 (stereo not drawn)
    6.1, 2.0
(9) COc1ccc(NC(=O)N2CCC(CCc3ccc(C(F)(F)F)cc3)CC2)cc1
    7.9, 11.0
(10) N#CC1C(=N)Oc2cc(N)ccc2C1C1CCCCC1 (stereo not drawn)
    10.4&-6.1, 4.0&-7.7
(11) CC(=O)c1cc(C(=O)N2CCC(CCC(=O)Nc3ccccc3)CC2)cs1
    5.3, 2.5
(12) Cc1ccc(C(=O)CC(C(=O)O)n2ccc(C)n2)cc1 (stereo not drawn)
    -7.2, -14.8
(13) CCOCCCN(CC(=O)N(Cc1ccc(F)cc1)Cc1ccco1)C(=O)C(c1ccccc1)c1ccccc1
    -0.8, 1.8
(14) O=C1CN(C(=O)c2ccc(Cl)cc2)CC(O)CN1CC1CC1 (stereo not drawn)
    22.4, 29.0
(15) CCC[n+]1c2ccccc2cc2ccccc21
    3.7, -1.4
(16) COCCN(CC(=O)N(CCc1c[nH]c2ccccc12)Cc1ccccc1OC)C(=O)Nc1ccc(Cl)cc1Cl
    20.5, 27.9
(17) Cc1ccsc1-c1nc(CN2[C@H]3CCNC[C@@H]2CC3)c(C)o1
    2.3, -0.1
(18) CN(C)CCCN(C(=O)C1=COCCO1)c1nc2c(F)cccc2s1
    2.3, 1.8
(19) CCN(CC)S(=O)(=O)c1c(OC)cc(C)c(Cl)c1C
    3.9, 1.6
(20) COc1ccc(CC(=O)NCc2nnnn2-c2ccc(OC)cc2)cc1
    1.5, -0.6
(21) CCc1nc2n(n1)C(=O)C(C(c1cccs1)N1CCCCC1)S2 (stereo not drawn)
    0.7, 24.4
(22) CN(Cc1ccsc1)Cc1nc(Cc2cccc(C(F)(F)F)c2)no1
    9.9, 4.7
(23) COc1ccc(C=C2C(=O)Nc3ccccc32)c(OC)c1
    -3.2, -3.6
(24) O=C(NC(=S)NC1=NCCS1)C(c1ccccc1)c1ccccc1
    8.5, 11.5
(25) O=C(CCn1c(=O)oc2cc(S(=O)(=O)N3CCCC3)ccc21)Nc1cccc(Cl)c1Cl
    -1.6, -3.6
(26) C=c1ccc(C)cc1=C1NN=C(NC(=O)CCSc2ccc(C)cc2)O1
    11.7, 2.1
(27) COc1ccc(NC(=O)N(Cc2nc(C(=O)N3CCN(C(C)=O)CC3)cs2)C(C)C)cc1
    8.0, 19.8
(28) Cn1c(CCNC(=O)c2ccccc2C2CCNC2)nc2ccccc21 (stereo not drawn)
    21.6, 6.2
(29) Cc1c(C(=O)C(F)(F)F)c2ccccc2n1CC(N)=O
    11.0, 7.3
(30) CCOC(=O)c1ccc(CN2CCCC(C)(C(=O)NCCOC)C2)cc1 (stereo not drawn)
    6.1, 2.4
(31) COc1cccc(-c2cc(C(=O)NC(C)(C)C)n3nc(C(C)(C)C)cc3n2)c1
    2.7, 8.6
(32) CC1CC(C)CN(C(=O)COC(=O)C(C)NC(=O)C(C)(C)C)C1 (stereo not drawn)
    10.8, 6.3
(33) CC(Oc1ccc(Cl)c(CO)n1)c1ccccc1 (stereo not drawn)
    -0.8&5.3, -2.7&0.7
(34) CC(C)(C)Nc1nc(Cl)nc(Nc2ccc(Cl)cc2)n1
    -7.1, -5.9
(35) O=C(Cn1cnc([N+](=O)[O-])n1)N/N=C\c1cccc(Oc2ccccc2)c1
    -8.3, -16.3
(36) Cc1cccc(Nc2ncccc2C(=O)Nc2ccc(Cl)cc2)c1C
    -5.0, -9.8
(37) CCCN(CCc1c[nH]c2ccc(NC(=O)c3ccccc3OC(F)(F)F)cc12)CC1CC1
    8.1, -1.3
(38) COCCN(Cc1nc2scc(-c3ccccc3F)c2c(=O)[nH]1)CC(O)Cc1ccccc1 (stereo not drawn)
    4.2, 13.1
(39) COc1ccc(S(=O)(=O)Oc2ccc(/C=C3\C(=N)N4N=CSC4=NC3=O)cc2OC)cc1
    -1.0, -0.4
(40) O=C(NCCS(=O)(=O)NC1CCCC1)c1ccc(F)cc1
    2.2, -1.7
(41) COC1(C)CC(NC(=O)N2CCC(n3ccnc3)CC2)C1(C)C (stereo not drawn)
    7.1, 3.3
(42) COc1ccc(-c2ccnc(SCc3csc(-c4c(F)cccc4F)n3)n2)cc1
    24.9, 22.2
(43) COC(=NCC(C)C)NC(=O)c1cccc(C(F)(F)F)c1
    -1.5, 0.4
(44) Cc1cc(C)n(CCNC(=O)Cc2csc(-c3ccccc3)n2)c(=O)n1
    0.1, 0.5
(45) COc1ccc(Br)cc1CSc1nnnn1C1CC1
    4.7, 4.6
(46) Fc1ccc(C2=NOC(CNCc3cccc(F)c3)C2)cc1 (stereo not drawn)
    -1.5, -5.7
(47) CCc1nc2ccc(C(=O)N3CCN(c4ccccc4)CC3)cn2c1N(CCC(C)C)CCN(C)C
    -5.3, -11.1
(48) CC(C)CNC(=O)c1cc(NC(=O)c2ccc3c(c2)OCO3)ccc1N1CCCC1
    -7.1, 3.1
(49) Cc1c(C(=O)N2CCN(c3ncccc3NC(=O)c3ccc4c(c3)OCO4)CC2)oc2ccccc12
    20.6, 18.8
(50) C=CCNC(=O)C(NC(=O)c1ccccc1)C1CCN(C(=O)c2cccc(C)c2)CC1 (stereo not drawn)
    4.1, 5.1
(51) COC(=O)c1cc(Cl)c2c(c1)CC(CNC(=O)c1ccccc1C(F)(F)F)O2 (stereo not drawn)
    18.6, 25.1
(52) c1ccc2c(c1)CC1(CCCCC1)n1c(-c3ccncc3)nnc1-2
    16.1, 8.3
(53) CCC(=O)C1=C(c2ccc(C(C)C)cc2)N(C(=O)CC)n2c(C)nnc2S1
    2.7, -0.5
(54) Cc1cc(NC(=O)C(c2ccccc2)N2CCN(C)CC2C)no1 (stereo not drawn)
    5.1, 2.1
(55) COc1ccc(Cl)cc1-n1nnc(C(=O)Nc2cccc(F)c2)c1C
    1.6, 14.1
(56) CCOC(=O)C1=C(C)N=c2s/c(=C/c3ccco3)c(=O)n2C1c1ccccc1 (stereo not drawn)
    3.3, 2.4
(57) CCOC(=O)C1=C(CC)NC2=C(C(=O)CCC2)C1c1ccc(Cl)c(Cl)c1 (stereo not drawn)
    -4.0, -11.2
(58) COc1ccc2c(c1)CC(NCCCn1nc(C)nc1C)CC2 (stereo not drawn)
    0.3, 7.7
(59) S=C1NC2(CCCC2)N=C1c1ccc(Cl)cc1Cl
    0.9, -3.7
(60) CC(c1ccccc1Cl)N1CCN(Cc2ncc(C(C)(C)C)o2)CC1 (stereo not drawn)
    1.2, 0.5

(more compounds)
Every second line gives: NPYLR7 ag, NPYLR7 ag max-min
(61) CCN(CC)c1ccc2cc(-c3csc(N/N=C\c4ccc(OC)cc4)n3)c(=O)oc2c1
    5.6, 1.7
(62) CCN1CCN(c2cc(C)nc(SCc3ccc(C(=O)NCCc4ccccn4)o3)n2)CC1
    3.8, 5.3
(63) CCCC(C)C(=O)NS(=O)(=O)N1CCCCC1 (stereo not drawn)
    -1.1, 54.1
(64) CCOC(=O)C(=O)Nc1sc(Cc2ccccc2)cc1C(=O)OCC
    3.1, 3.6
(65) Cn1c(=O)[nH]c(=O)c2c1nc(N1CCc3ccccc3C1)n2CCCSc1ncccn1
    0.9, 12.9
(66) COc1ccc(CN(CCc2c[nH]c3ccccc23)C(=O)CN(C(=O)c2ccc([N+](=O)[O-])cc2Cl)C2CC2)cc1OC
    22.2, 12.0
(67) Cc1ccc2nc(COc3ccc(C)nc3)cn2c1
    -1.1, -3.7
(68) O=C(Cn1ccccc1=O)NC(c1ccccc1)c1ccccn1 (stereo not drawn)
    9.7, 9.9
(69) O=C(CN1C(=O)C2CC=CCC2C1=O)NC1CCCCCC1 (stereo not drawn)
    -1.5, -2.6
(70) C=CCN(CC=C)C(=O)CN1CCc2[nH]cnc2C12CCCCC2
    -4.5, -7.1
(71) CCOc1cc(C(=O)N2CCOC(COc3ccccc3OC)C2)ccc1OC (stereo not drawn)
    6.0, 1.2
(72) COc1cccc(C(=O)N(CC(=O)N2c3ccccc3-n3cccc3C2c2ccc(F)cc2)C(C)C)c1 (stereo not drawn)
    -3.2, 1.9
(73) Cc1cc(C)n(CC2CC(=O)N(c3ccc(Br)cc3)C2=O)n1 (stereo not drawn)
    -0.4, 0.8
(74) CCC(C)N(Cc1ccc(OC)c(OCc2nc(CO)cs2)c1)C(=O)c1cccs1 (stereo not drawn)
    12.5, 5.8
(75) O=C(Cc1ccc(N2CCNC2=O)cc1)N1CC(c2cccnc2)C1
    0.6, 0.3
(76) CCN(CC(=O)Nc1sccc1C#N)Cc1ccc2c(c1)OCO2
    8.2, -1.7
(77) Cc1nc2c(c(=O)c3ccccc3n2C)c2nc3ccccc3n12
    -2.5, -5.2
(78) COc1ccc(Cl)cc1-n1c(C)c(C)n2c3c(=O)n(C(C)C(C)=O)c(=O)n(C)c3nc12 (stereo not drawn)
    0.9, 29.2
(79) Nc1ccn(C[C@@H](CO)OCP(=O)(O)O)c(=O)n1
    -4.7, -12.8
(80) CCOC(=O)c1csc(N(C)S(=O)(=O)c2cc(F)ccc2F)n1
    3.2, 0.5

In a second layout: 5 of the compounds above.
no.	Structure	NPYLR7 ag	NPYLR7 ag max-min
18	CN(C)CCCN(C(=O)C1=COCCO1)c1nc2c(F)cccc2s1	2.3	1.8
19	CCN(CC)S(=O)(=O)c1c(OC)cc(C)c(Cl)c1C	3.9	1.6
20	COc1ccc(CC(=O)NCc2nnnn2-c2ccc(OC)cc2)cc1	1.5	-0.6
21	CCc1nc2n(n1)C(=O)C(C(c1cccs1)N1CCCCC1)S2 (stereo not drawn)	0.7	24.4
22	CN(Cc1ccsc1)Cc1nc(Cc2cccc(C(F)(F)F)c2)no1	9.9	4.7

A draw from above in order of length of the SMILES, highest first.
Every second line gives: NPYLR7 ag, NPYLR7 ag max-min
(50) C=CCNC(=O)C(NC(=O)c1ccccc1)C1CCN(C(=O)c2cccc(C)c2)CC1 (stereo not drawn)
    4.1, 5.1
(32) CC1CC(C)CN(C(=O)COC(=O)C(C)NC(=O)C(C)(C)C)C1 (stereo not drawn)
    10.8, 6.3
(30) CCOC(=O)c1ccc(CN2CCCC(C)(C(=O)NCCOC)C2)cc1 (stereo not drawn)
    6.1, 2.4
(22) CN(Cc1ccsc1)Cc1nc(Cc2cccc(C(F)(F)F)c2)no1
    9.9, 4.7
(54) Cc1cc(NC(=O)C(c2ccccc2)N2CCN(C)CC2C)no1 (stereo not drawn)
    5.1, 2.1
(7) CCc1cccc2c(-c3csc(CC(=O)OC)n3)c[nH]c12
    16.8, 9.4
(68) O=C(Cn1ccccc1=O)NC(c1ccccc1)c1ccccn1 (stereo not drawn)
    9.7, 9.9

Additional records
Every second line gives: NPYLR7 ag, NPYLR7 ag max-min
(81) Cc1cc(C)cc(-c2nc3ccccn3c2NC(=O)CCCl)c1
    -8.0, 0.3
(82) CCOC(=O)c1c(NC(=O)Cc2ccccc2)sc(C(=O)Nc2ccccc2F)c1C
    1.0, 3.7
(83) CCN1CCCCC1CNC(=O)CCC(=O)NC1CCCC1 (stereo not drawn)
    11.2, 5.7
(84) O=C(c1cccc(Br)c1)N1CCC(c2ccc(F)cc2)CC1
    -7.5, -12.0
(85) CCN(CC)S(=O)(=O)c1ccc(C(=O)Nc2nc(-c3ccc([N+](=O)[O-])cc3)cs2)cc1
    8.9, 8.2
(86) COc1cccc(C2c3c(oc4ccc(Cl)cc4c3=O)C(=O)N2c2cc(C)on2)c1 (stereo not drawn)
    7.8, 3.7
(87) COc1cccc(NC(=O)Nc2cccc(-n3nc(OCC(C)C)nc3-c3cccc(OC)c3)c2)c1
    14.3, 19.8
(88) Cc1ccc(-c2nc(CN(C)C3CCOC3)c(C)o2)o1 (stereo not drawn)
    -11.5, -15.4
(89) Cc1cnn(Cc2cccc(F)c2)c1NC(=O)CSc1ccncc1
    -3.2, -8.8
(90) CN1CCC(Cc2noc(-c3cccc(OCC(N)=O)c3)n2)CC1
    1.5, 9.7
(91) COCC(c1ccccn1)N(C)C(=O)c1cccc(Cl)c1Cl (stereo not drawn)
    -1.1, -2.1
(92) Cc1cc(C)cc(-c2nc3ccccn3c2NC(=O)Cc2ccccc2)c1
    -3.2, 2.3

Some of the compounds tested. The share of hits here may be higher or lower than overall.
